StopGo RLuc: lowers the Renilla signal of an FMDV 2A StopGo reporter; AID 1745857; Potency, µM (top dose mostly 57.5 µM), without a hit: at the top dose signal change, negative = less light; HEK cells with a luciferase reporter of 2A StopGo recoding; 120,000 tested, 0.32% active; active means well fitted falling curve with a large enough effect; inconclusive means small, poorly fitted or top-dose-only effect; inactive means no such curve, though single readings can be large or run the other way; note: nearly all actives have a fitted effect of over 55% in size; overnight with compound
2A firefly: FMDV 2A StopGo reporter, firefly signal; 120,000 tested, 0.23% active; HEK cells with a luciferase reporter of 2A StopGo recoding; Potency, µM (doses to about 57.5 µM), inactives show at the highest dose signal change, negative = less light; active = well fitted falling curve with a large enough effect; inconclusive = small, poorly fitted or top-dose-only effect; inactive = no such curve, though single readings can be large or run the other way; note: nearly all actives have a fitted effect of over 60% in size; overnight with compound
An asterisk follows results filed as active; ? = inconclusive; [ ] = remark or other dose. % is set by controls: 0 for no effect and ±100 for the full control effect; potency is the fitted concentration of half-maximal effect. Some of the compounds tested; rates above refer to the full screens.

Second line of a record: 2A firefly, StopGo RLuc
- COc1ccc(C(CNC(=O)c2nn(Cc3ccccc3)c(=O)c3ccccc23)N2CCCC2)cc1 (centres undefined)
    -7%, 10%
- CCCCN(CCCC)c1ncnc2c1cnn2-c1cccc(C)c1
    16%, -14%
- CCOC(=O)c1ccc(NCc2ccnc(N3CCOCC3)c2)nc1
    ?, 28µM*
- Cc1nn(CCC(=O)Nc2ccc(C(C)C)cc2)c(C)c1S(=O)(=O)N1CCC(C)CC1
    -17%, -30%
- CC(C)OCCCNC(=O)c1c2c(nc3ccccc13)C(=O)N(C1CCCCC1)C2
    -20%, 5%
- COc1ccc(-c2nc3ncccn3c2Nc2ccc3c(c2)OCCO3)cc1
    117%[activator], 14%
- CCc1nn(CC(=O)NCc2ccccc2Cl)c(=O)c2cc3ccccc3n12
    -2%, -2%
- COc1ccc(-c2nc(CN3CCC(C(=O)NCc4ccccc4)CC3)c(C)o2)cc1OC
    -11%, 0%
- Cc1ccccc1Cn1c(Cl)nc2c1c(=O)n(C)c(=O)n2C
    -27%, -23%
- C[C@@H](O)CNC(=O)c1nc(-c2ccc3cc[nH]c3c2)no1
    146%[activator], -6%
- CCOC(=O)C1CCN(c2nc3c(S(=O)(=O)c4ccc(Br)cc4)nnn3c3ccsc23)CC1
    -16%, 11%
- CC(C)NC(=O)NC(=O)C(C)N(C)Cc1ccc(F)cc1 (centres undefined)
    5%, 13%
- Cc1cccc(NC(=O)c2ccc(N(Cc3ccccc3)S(C)(=O)=O)cc2)c1
    -10%, -7%
- Cc1c(-c2ccccc2)oc2c(C(=O)N3CCCC(C)C3)cccc2c1=O (centres undefined)
    4%, 113%[activator]
- Cc1ccc(Nc2nc(CSc3nnnn3C3CCCC3)cs2)cc1
    0%, 35%[activator]
- CC1=C/C(=N\NC(=S)Nc2ccccc2F)CC1
    179%[activator], 42%[activator]
- CCOC(=O)COc1ccc(C2C(C(=O)OC)=C(C)NC3=C2C(=O)c2ccccc23)cc1Cl (centres undefined)
    29%, 13%
- O=C(O)c1cc(NS(=O)(=O)c2cc(F)cc(F)c2)ccc1Cl
    1%, 1%
- O=C(O)C1CCCCC1C(=O)NC1CCCCCCC1 (centres undefined)
    4%, -13%
- Cc1ccc(NC(=O)c2oc3ccc(S(=O)(=O)N4CCCCCC4)cc3c2C)c(C)c1
    -3%, 4%
- CCCOc1ccc(-c2cc(C(=O)O)c3cc(C)ccc3n2)cc1
    41%[activator], ?
- COc1cccc(Nc2nc(-c3ccc(CC(=O)N4CCOCC4)s3)cs2)c1
    15%, -17%
- O=C(O)CCc1ccc(S(=O)(=O)NCc2ccccc2)cc1
    9%, 16%
- CC(C)CCNC(=O)CN1C(=O)CCn2nc(-c3cn(C)c4ccccc34)cc21
    -13%, -13%
- O=C(CSc1nccn1-c1cccc(C(F)(F)F)c1)Nc1ccc2c(c1)OCO2
    8%, 21%
- O=C1NC(=O)C(c2ccccc2)(c2ccccc2)N1
    ?, 0%
- Cc1cccc(NC(=O)Cn2cc(C(=O)c3ccco3)c3ccccc32)c1C
    0%, 0%
- COc1ccccc1CNS(=O)(=O)c1cc2c3c(c1)CCN3C(=O)CC2
    0%, 54%[activator]
- CCCCCNC(=O)N(C)Cc1ccc(C(=O)OC)cc1
    21%, 2%
- O=C(c1cnc2c(c1)COc1ccc(Cl)cc1-2)c1ccccc1O
    9%, -3%

An excerpt from above in order of count of non-hydrogen atoms, ascending:
Second line of a record: 2A firefly, StopGo RLuc
- O=C(O)c1cc(NS(=O)(=O)c2cc(F)cc(F)c2)ccc1Cl
    1%, 1%
- CCc1nn(CC(=O)NCc2ccccc2Cl)c(=O)c2cc3ccccc3n12
    -2%, -2%
- CCOC(=O)C1CCN(c2nc3c(S(=O)(=O)c4ccc(Br)cc4)nnn3c3ccsc23)CC1
    -16%, 11%

The listing continues:
Second line of a record: 2A firefly, StopGo RLuc
- Cc1ccc(-c2noc(-c3nnn(CC(=O)Nc4cc(Cl)ccc4C)c3N)n2)cc1
    12%, 2%
- O=C(CC(F)(F)F)NCCc1ccccn1
    5%, -3%
- CC(=O)N1CCc2c(sc3c2c(=O)n(CCc2ccccc2)c(=O)n3CC(=O)Nc2ccccc2F)C1
    -7%, -7%
- COc1ccc(-c2csc(NC(=O)Cn3cnc4c3c(=O)n(C)c(=O)n4C)n2)c2ccccc12
    11%, 0%
- O=C(NC1CCCCC1)c1cc2c(F)cccc2s1
    188%[activator], 37%[activator]
- Cc1cc(NC(=O)c2cc(-c3ccc(Cl)cc3)on2)no1
    13%, 7%
- O=c1c(Oc2ccccc2)coc2cc(OCc3ccc(Cl)cc3)ccc12
    1%, -10%
- Cc1noc(COc2ccc3c(C)cc(=O)oc3c2)n1
    0%, -9%
- CC(NCc1ccccc1C#N)c1ccccc1F (centres undefined)
    -18%, -22%
- CCNc1ccc(-c2nc(-c3ccco3)no2)cc1[N+](=O)[O-]
    134%[activator], 15%
- CC(=O)N1c2ccccc2C(=O)C1N1CCN(c2ccc(F)cc2)CC1 (centres undefined)
    -4%, 3%
- Cc1ccc2oc(C(=O)Nc3c(C(=O)Nc4cccc(Cl)c4)oc4ccccc34)cc(=O)c2c1
    -21%, -20%
- CCOC(=O)c1c(-c2ccccc2)oc2ccc(OCc3ccc(C)cc3)cc12
    5%, -13%
- COc1ccccc1CNC(=O)Cc1nn(C)c(=O)c2ccccc12
    -16%, -28%
- COc1ccc(N2CCN(C(c3ccccc3F)c3sc4nc(-c5ccco5)nn4c3O)CC2)cc1 (centres undefined)
    -18%, 57%[activator]
- Brc1ccc(-c2noc(-c3ccccc3)n2)o1
    291%[activator], -1%
- CC(C)Oc1cccc(C2CC(=O)Nc3cc4c(cc32)OCO4)c1 (centres undefined)
    ?, ?
- Fc1ccccc1-c1nnc(SCc2cccc(F)c2F)n1C1CC1
    78%[activator], 26%
- COc1ccc(Cl)cc1NC(=O)N1CCN(c2nnc(C)c3c(C)n(-c4ccccc4)nc23)CC1
    -8%, -8%
- CSCCC(NC(=O)c1ccccc1Br)C(=O)Nc1ccc(F)cc1F (centres undefined)
    14%, 39%[activator]
- COc1ccc(NC(=O)c2cnc3ccccc3n2)c(OC)c1
    153%[activator], 8%
- Cc1cccc(NC(=O)Cn2nc(-c3ccccc3)c3cnc4ccccc4c32)c1
    -23%, -18%
- CC(C)c1noc(CCCC(=O)Nc2cccc(OC3CCCC3)c2)n1
    0%, -6%
- O=C(O)c1ccc(NC(=O)c2ccc(Cl)c(S(=O)(=O)N3CCCCCC3)c2)cc1
    4%, 4%
- Cc1ccccc1C(C)NC(=O)c1ccc[n+]([O-])c1 (centres undefined)
    20%, 12%
- COC(=O)c1cnc(N2CCN(c3ccccc3)CC2)c2ccccc12
    -5%, -10%
- CCc1cccc2c(C(=O)C(=O)Nc3cccc(Cl)c3)c[nH]c12
    92%[activator], -7%
- N#Cc1ccc(NC(=O)Cn2nc3c(N4CCCC4)nc4ccccc4n3c2=O)cc1
    20%, -12%
- COc1ccc(OC)c(CN2CCN(c3cccc(C)c3C)CC2)c1
    -9%, -20%
- COc1cc(NC(=O)CSc2c3c(nc4ccccc24)CCC3)cc(OC)c1OC
    -4%, -1%
- CC(=O)Nc1cccc(NC(=O)CSc2nc(=O)[nH]c3c2CCC3)c1
    5%, -7%
- Nc1nc(COc2ccccc2C(=O)NCc2ccccc2)nc(Nc2ccccc2)n1
    ?, -7%
- Cc1ccc(N2CC(C(=O)Nc3c(NC4CCCC4)c4ccccc4oc3=O)CC2=O)cc1 (centres undefined)
    65%[activator], 73%[activator]
- Cc1ccc(-c2n[nH]c(=O)c3ccccc23)cc1S(=O)(=O)N(C)CCO
    9%, -2%
- Cc1cccc(COc2ccccc2C(=O)O)c1
    1%, 2%[1.06 µM]
- c1ccc(-n2nnnc2NCCCNC2CCCCC2)cc1
    3%, 32%[activator]
- COc1cc(OC)c(NC(=O)c2cc(C(C)=O)n3ccccc23)cc1Cl
    8%, 14%
- Cc1ccc2oc(=O)n(CCNC(=O)Nc3ccc(F)cc3)c2c1
    18%, 28%
- Cc1cc2c(cc1C)CSC(c1c(O)ccc3cc(Br)ccc13)SC2
    ?, ?
- O=[N+]([O-])c1cccc2nc(/C=C/c3c(F)c(F)c(F)c(F)c3F)ccc12
    -4%, -12%
- CCOc1ccc(C(=O)c2cn(Cc3ccc(Cl)cc3)c3cc(OC)c(OC)cc3c2=O)cc1
    -12%, 4%
- CCOc1ccc(-c2nc3cc(NC(=O)c4cccc(C)c4)ccc3o2)cc1
    12%, 5%
- CC(C)(C)c1nnc(NS(=O)(=O)c2ccc(N)cc2)s1
    ?, 12%
- Cc1ccc(C2CCCN2C(=O)c2cc(-c3cccs3)on2)cc1 (centres undefined)
    2%, ?
- Cc1nn(-c2ccccc2)c2c1N(CC(=O)N1CCN(c3ccccc3F)CC1)C(=O)CS2
    -25%, ?
- Cn1nc(C(=O)OCC(=O)NC(C)(C#N)C2CC2)c2ccccc2c1=O (centres undefined)
    -8%, -12%
- Cc1ccc2[nH]cc(C(C(=O)O)N3CCN(Cc4ccccc4)CC3)c2c1 (centres undefined)
    -6%, -14%
- COc1ccc(OCc2ccc(-c3nc(C#N)c(NCc4ccccc4)o3)o2)cc1
    0%, 40%[activator]
- COc1ccc(OC)c(-c2noc(N3CCN(c4cccc(C(F)(F)F)c4)CC3)n2)c1
    7%, -6%
- CC1CCCN(Cc2ccc(CNC(=O)N3CCC(C#N)CC3)cc2)C1 (centres undefined)
    -1%, 2%
- CN(C(=O)C(Cl)Cl)c1ccc(OC(=O)c2ccco2)cc1
    3%, -4%
- Cc1cc(Cl)ccc1-c1ccc(C=O)o1
    -3%, ?
- Nc1c(C(=O)c2ccccc2)sc(Nc2ccc(Cl)c(Cl)c2)c1C(=O)Nc1ccccc1
    ?, ?
- CCOC(=O)c1c(C)[nH]c(C)c1S(=O)(=O)N(C)CC(=O)N1CCN(c2cccc(C)c2C)CC1
    -8%, 48%[activator]
- Cc1ccc(C(=O)c2sc(Nc3ccc(Cl)cc3C)nc2N)cc1
    16%, 5%
- Cc1cc2oc(C(=O)O)c(C)c2cc1C
    29%, 1%
- COP(=S)(OC)Oc1ccc(S(N)(=O)=O)cc1
    -15%[11.5 µM], -7%
- CCC(C)(CNC(=O)c1cc(-c2ccccc2)on1)N1CCOCC1 (centres undefined)
    61%[activator], 2%
- COc1cccc(NC(=O)c2oc3ccc(S(=O)(=O)N(C)C4CCCCC4)cc3c2C)c1
    10%, 33%[activator]
- Cn1c(=O)[nH]c(=O)c2c1nc(NCCO)n2Cc1cccc2ccccc12
    -2%, -7%

Complete entries as entered above. Order of screens: 2A firefly	StopGo RLuc
CCc1nn(CC(=O)NCc2ccccc2Cl)c(=O)c2cc3ccccc3n12 in the list: -2%	-2%
O=C(O)C1CCCCC1C(=O)NC1CCCCCCC1 (centres undefined) in the list: 4%	-13%
COC(=O)c1cnc(N2CCN(c3ccccc3)CC2)c2ccccc12 in the list: -5%	-10%
CCC(C)(CNC(=O)c1cc(-c2ccccc2)on1)N1CCOCC1 (centres undefined) in the list: 61%[activator]	2%
Cc1nn(-c2ccccc2)c2c1N(CC(=O)N1CCN(c3ccccc3F)CC1)C(=O)CS2 in the list: -25%	?

Other structures:
Second line of a record: 2A firefly, StopGo RLuc
- Cc1cc(Cl)ccc1OCCSc1nnc(-c2cccs2)o1
    -3%, -7%
- CCOCCn1c(-n2nc(C)cc2C)nc2c1c(=O)n(CC)c(=O)n2C
    5%, 3%
- O=S(CCCOc1ccc(F)cc1)Cc1cccc(F)c1 (centres undefined)
    0%, 26%
- CCCn1c(NC(=O)c2oc3ccccc3c2CSC)nc2ccccc21
    -30%, -34%
- COc1cccc(N2C(=O)CN(S(C)(=O)=O)CC2(C)C(=O)NCc2ccc(C)cc2)c1 (centres undefined)
    -10%, -4%
- Cc1ccn(Cc2cc(C(=O)O)c3ccccc3n2)n1
    -3%, -7%
- CC(=O)N1c2ccc(S(=O)(=O)N3CCN(c4ccc(C)cc4C)CC3)cc2CC1C (centres undefined)
    -4%, -1%
- O=C(CS(=O)(=O)Cc1ccccc1)Nc1cc(F)cc(F)c1
    23%, -7%
- Cc1ccc(C(=O)N2CCC(c3c[nH]c4ccccc34)(c3c[nH]c4ccccc34)CC2)cc1
    -19%, -9%
- O=c1c2ccccc2c(-c2ccccc2)nn1-c1cc(N2CCN(CCO)CC2)ccc1[N+](=O)[O-]
    -10%, -11%
- O=C(C1CN(C(=O)c2nn(-c3ccccc3)c(=O)c3ccccc23)c2ccccc2O1)N1CCOCC1 (centres undefined)
    27%, 49%[activator]
- CCCOC(=O)c1ccc(Oc2coc3cc(O)ccc3c2=O)cc1
    51%[activator], -5%
- COc1ccc2cc(CN(C)C(C)C(=O)Nc3cc(C)ccc3C)ccc2c1 (centres undefined)
    4%, 2%
- Cc1ccc(C2(c3ccc(C)cc3)SC(=S)c3ccccc32)cc1
    19%, -5%
- Cc1cccc(NC(=O)CCCCCn2c(=O)[nH]c3ccsc3c2=O)c1
    23%, 190%[activator]
- Cc1ccc(-c2cnc(NCc3c(F)cccc3Cl)n2C)cc1
    144%[activator], 70%[activator]
- CCCCn1c(=O)[nH]c(=O)c2c1nc(-c1ccc(OCCC)c(OCC)c1)n2CCOC
    2%, -2%
- O=C(NCC(c1ccco1)N1CCCC1)c1sc2ccccc2c1Cl (centres undefined)
    24%, -2%
- N#C/C(=C\c1cn(Cc2ccccc2F)c2ccccc12)C(N)=O
    5%, 7%
- COc1ccc(S(=O)(=O)N(CC(=O)Nc2cc(C)cc(C)c2)c2ccc(Cl)cc2)cc1
    -18%, -4%
- N=C(N)SCc1cccc(F)c1
    0%, 24%
- Cc1cccc(Cn2cccc2CNS(=O)(=O)c2ccccc2F)c1
    5%, 74%[activator]
- CCN(CC)CCNCc1sccc1C
    -1%, 5%

Screening results from PubChem BioAssay.
